Marburg entry inh – qHTS for inhibitors of binding or entry into cells for Marburg Virus. Potency, µM (doses to about 37.8 µM), for inactives: top-dose activity change, negative = inhibition, hits mostly inhibitors. Marburg virus pseudotyped entry inhibition, cell reporter; control for the full effect not named in the record; about a third of the inactives were read at about 46 µM. hit rate 1.8% among 300,000. AID 540276, 2011; active = well fitted inhibition curve with a large enough effect; inconclusive = small, poorly fitted or top-dose-only effect, or effect the other way; inactive = flat fitted curve, though single readings scatter; tested in HEK293 cells; about a fifth of its hits are not listed in these tables; also: % is scaled to controls: 0 for no effect and ±100 for the full control effect; luciferase read-out
SARS PLpro yeast – qHTS of Yeast-based Assay for SARS-CoV PLP; S. cerevisiae expressing SARS-CoV PLpro, growth rescue; control for the full effect not named in the record; AID 485353, 2010; hit rate 0.19% among 330,000; Potency, µM (top dose mostly 32.9 µM), inactives show at the highest dose activity, positive = growth rescue; also: 0% is about no effect; nearly all actives have a fitted effect of over 55% in size; growth read by luminescence after 48 h
StopGo reporter – High Throughput Screening for Foot and Mouth Disease Virus Antivirals; human cells with a luciferase reporter of 2A StopGo recoding; control for the full effect not named in the record; Potency, µM (top dose mostly 57.9 µM), for the others: at the highest dose signal change, negative = less light; hit rate 1.2% among 410,000; active = well fitted falling curve with a large enough effect; inconclusive = small, poorly fitted or top-dose-only effect; inactive = no such curve, though single readings can be large or run the other way; tested in HEK293T cells; also: % is scaled to controls: 0 for no effect and ±100 for the full control effect; nearly all actives have a fitted effect of over 45% in size; luciferase light after 4 h
Cruzain inh noDet – qHTS Assay for Promiscuous and Specific Inhibitors of Cruzain (without detergent). hit rate 2.3% among 200,000. Cruzipain (Trypanosoma cruzi), P25779. Potency, µM, inactives show max response, negative = inhibition, usual class: inhibitors. purified cruzain, Z-FR-AMC fluorescence, no detergent; active = well fitted curve in the direction sought with a large enough effect; inconclusive = small, poorly fitted or top-dose-only effect, or another doubt; inactive = no such curve, though single readings can be large; an effect the other way counts as inactive or inconclusive;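 also: plate controls were enzyme without inhibitor for no effect and buffer without enzyme for full effect; nearly all actives have a fitted effect of over 40% in size; top concentration of the series not given in the record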
Target sequence (P25779 123-467 limits assumed): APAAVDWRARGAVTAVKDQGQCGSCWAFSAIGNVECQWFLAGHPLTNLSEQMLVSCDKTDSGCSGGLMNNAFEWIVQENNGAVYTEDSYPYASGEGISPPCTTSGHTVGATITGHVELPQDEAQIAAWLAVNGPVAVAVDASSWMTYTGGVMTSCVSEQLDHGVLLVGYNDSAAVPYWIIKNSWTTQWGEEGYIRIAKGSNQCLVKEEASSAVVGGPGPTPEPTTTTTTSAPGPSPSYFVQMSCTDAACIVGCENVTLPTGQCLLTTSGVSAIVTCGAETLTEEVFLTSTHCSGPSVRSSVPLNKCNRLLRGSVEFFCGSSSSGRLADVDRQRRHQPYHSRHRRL
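Purified cruzain at 1.5 nM, pre-incubated 15 min with compound at room temperature in 100 mM sodium acetate pH 5.5, 5 mM DTT, 0.00005% Triton X-100. Reaction started with 2 uM Z-FR-AMC; AMC fluorescence increase over 60 s gives rate.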
NS1 function inh – qHTS Assay for Inhibitors of Influenza NS1 Protein Function; S. cerevisiae slowed by influenza A NS1, growth recovery by OD600; Potency, µM (doses to about 46.1 µM), inactives show top-dose activity, positive = more growth; hit rate 0.4% among 270,000; AID 2326, 2010; also: actives are rising curves; nearly all actives have a fitted effect of over 50% in size
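S. cerevisiae expressing influenza A NS1, grown in glucose, washed, then diluted 1:100 into pH 6.0 -URA galactose medium with 23 nl compound. Growth recovery read as OD600; NS1-free strain serves as control.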
Lassa entry inh – qHTS for Inhibitors of binding or entry into cells for Lassa Virus. Lassa virus pseudotype entry inhibition, cell reporter; control for the full effect not named in the record. Potency, µM (top dose mostly 37.9 µM), for inactives: top-dose activity change, negative = inhibition, actives largely listed as inhibitors. hit rate 1.2% among 300,000. AID 540256, 2011; active means well fitted inhibition curve with a large enough effect; inconclusive means small, poorly fitted or top-dose-only effect, or effect the other way; inactive means flat fitted curve, though single readings scatter; tested in HEK293 cells; also: % is scaled to controls: 0 for no effect and ±100 for the full control effect; nearly all actives have a fitted effect of over 50% in size; luciferase read-out
RE007 growth inh – qHTS Assay for Inhibitors of the HIV-1 protein Vpr | Potency, µM (series often up to 92.2 µM), for inactives: at the highest dose activity change, negative = less growth | S. pombe RE007 Vpr strain, BacTiter-Glo ATP luminescence, 24 h; control for the full effect not named in the record | hit rate 0.21% among 360,000; active = well fitted falling curve with a large enough effect; inconclusive = small, poorly fitted or top-dose-only effect; inactive = no such curve, though single readings can be large or run the other way;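 also: % is scaled to controls: 0 for no effect and ±100 for the full control effect; nearly all actives have a fitted effect of over 50% in size; the assay follows cell death caused by Vpr and the record does not say whether a fall means rescue or toxicity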
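Fission yeast strain RE007, carrying one chromosomally integrated HIV-1 vpr copy, was seeded at OD 0.01 in PMG+AL medium with 23 nL pinned compound. After 24 h at 30 °C and 99% humidity, viability was read by BacTiter-Glo luminescence.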
Cruzain inh Det – qHTS Assay for Promiscuous and Specific Inhibitors of Cruzain (with detergent); Potency, µM, inactives show max response, negative = inhibition, actives largely listed as inhibitors; hit rate 0.43% among 200,000; Cruzipain (Trypanosoma cruzi), P25779; purified cruzain, Z-FR-AMC fluorescence, 0.01% Triton; active = well fitted curve in the direction sought with a large enough effect; inconclusive = small, poorly fitted or top-dose-only effect, or another doubt; inactive = no such curve, though single readings can be large; an effect the other way counts as inactive or inconclusive;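 also: plate controls were neutral wells for no effect and buffer without enzyme for full effect; nearly all actives have a fitted effect of over 40% in size; top concentration of the series not given in the record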
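In this qHTS format, compounds are incubated with 1.5 nM cruzain for 15 min at room temperature before 2 uM Z-FR-AMC is added. Release of AMC is followed at 360/450 nm, and progress is taken as the 60 s fluorescence difference.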
An asterisk follows results filed as active; u = inconclusive; x = not tested or not shown; & = joins results of further samples; [ ] = dose if it differs, or a comment. Unless noted, calls follow the shape of the dose curve; as a rule, active means well fitted rising curve with a large enough effect; inconclusive means small, poorly fitted or top-dose-only effect; inactive means no such curve, though single readings can be large or run the other way. Potency is read from the fitted curve at half-maximal effect. Hits appear at their usual frequency; overall some 4.7% were active at least once.

SMILES | Marburg entry inh | SARS PLpro yeast | StopGo reporter | Cruzain inh noDet | NS1 function inh | Lassa entry inh | RE007 growth inh | Cruzain inh Det
Cc1[nH]n(-c2ccccc2)c(=O)c1C=NCc1ccncc1 | 5%[46.1 µM] | 0% | 16% | x | 8% | 21% | 7% | x
COC(=O)c1cccc(NC(=O)CCc2cc(OC)c(OC)c(OC)c2)c1 | u | -4% | 3% | 5% | -17% | 11% | x | 0.2%
CCN(CC(=O)Nc1ccc2c(c1)OCCO2)Cc1cc(=O)oc2c(C)c(C)ccc12 | -28% | 6% | -3% | 7% | -74% | 15% | -8% | -2.6%
CCOC(=O)c1ccc(NC(=O)C(=O)NCC2(c3ccc(OC)cc3)CCOCC2)cc1 | x | 2% | u | x | -29% | x | 2% | x
CC(C)c1ccccc1NC(=O)Cn1c(-c2ccccc2Cl)nc2ccccc21 | 4% | 7% | -22% | u | 8% | -1% | -14% | -4.9%
CC(C)C[C@H](NC(=O)c1nc[nH]c1C(=O)N(C)Cc1ccccc1)C(=O)OCc1ccccc1 | x | -2% | -22% | x | -8% | x | 5% | x
CN(C)c1ccc(NC(=O)CCCc2ccccc2)cc1 | -4% | -7% | -16% | -7% | -6% | 1% | 4% | 0.0%
CN(CC(=O)O/N=C(\N)c1ccccn1)S(=O)(=O)c1ccc(Br)cc1 | 5% | -6% | x | -14% | -18% | 2% | -8% | 0.6%
Cc1ccc2nsnc2c1S(=O)(=O)N(Cc1ccco1)Cc1cc2cccc(C)c2[nH]c1=O | -22% | 5% | -22% | 9% | 2% | u | 2% | 0.5%
CC(=O)c1ccc(S(=O)(=O)N2CCN(c3nn(C)c(=O)n(C)c3=O)CC2)cc1 | -1% | 0% | -5% | x | x | 4% | -13% | x
O=C(Nc1ccc(F)cc1F)c1cc(-c2ccc(Cl)cc2)on1 | 2%[46.1 µM] | x | 38%[activator] | -3% | x | 24%[46.1 µM] | x | -0.8%
CCNC(=S)NS(=O)(=O)c1ccccc1 | 4% | 1% | 7% | 10% | -57% | 11% | 15% | -4.9%

Record cards, as listed above. Screens in order: Marburg entry inh | SARS PLpro yeast | StopGo reporter | Cruzain inh noDet | NS1 function inh | Lassa entry inh | RE007 growth inh | Cruzain inh Det
CC(C)c1ccccc1NC(=O)Cn1c(-c2ccccc2Cl)nc2ccccc21 across the screens: 4% | 7% | -22% | u | 8% | -1% | -14% | -4.9%
O=C(Nc1ccc(F)cc1F)c1cc(-c2ccc(Cl)cc2)on1 across the screens: 2%[46.1 µM] | x | 38%[activator] | -3% | x | 24%[46.1 µM] | x | -0.8%
COC(=O)c1cccc(NC(=O)CCc2cc(OC)c(OC)c(OC)c2)c1 across the screens: u | -4% | 3% | 5% | -17% | 11% | x | 0.2%

Later entries:
SMILES | Marburg entry inh | SARS PLpro yeast | StopGo reporter | Cruzain inh noDet | NS1 function inh | Lassa entry inh | RE007 growth inh | Cruzain inh Det
CCc1nnc(NC(=O)CSc2nc3cccnc3n2Cc2ccccc2)s1 | 5% | -1% | 0% | -19% | 10%[9.22 µM] | 20% | 12% | -0.9%
Cc1cc(=O)cc(C)[nH]1 | 22% | 1% | x | 2% | 4% | 19% | 1% | -0.1%
O=C(c1ccc(S(=O)(=O)NCc2ccco2)cc1)N1CCCC(C(F)(F)F)C1 (stereo not given) | -3% | 5% | 6% | x | x | u | -3% | x
CN(C)S(=O)(=O)c1cc(NC(=O)CNCc2ccccc2)ccc1Cl | u | -1% | 21% | x | 2% | -25%[46.1 µM] | -12% | x
Cc1cccc(NC(=O)CSc2nnc3[nH]c(=O)cc(-c4ccccc4)n23)c1C | x | x | 19% | -2% | x | 6%[46.1 µM] | x | -2.7%
O=C1c2ccccc2C(=O)N1CCN1CCCCC1 | -1%&-1% | 7% | -13% | 0% | 2% | 23% | -11% | 6.5%
CCc1ccc(OCC(=O)N/N=C(\C)c2ccc(OC(F)F)cc2)cc1 | 0% | -10% | -10% | -3% | -1% | u | -5% | -8.3%
Cc1ccc(C(=O)CSc2nnc(-c3ccco3)n2Cc2ccccc2)cc1 | -9% | 6% | -25% | 9% | -25% | 1% | -22% | -7.9%
COc1cccc(C(=O)N2CCC(N3CCN(Cc4ccc(F)cc4)C(=O)C3=O)CC2)c1 | x | x | -1% | -3% | x | 20%[46.1 µM] | x | 2.0%
COc1cc(OC)c(NC(=O)C(Cc2ccccc2)NS(=O)(=O)c2cccc3nsnc23)cc1Cl (stereo not given) | 14%[46.1 µM] | x | 30% | -21% | x | -10%[46.1 µM] | x | -3.8%
Cc1cc(=O)oc2cc(OCC(=O)Nc3ccccc3C(N)=O)c(Cl)cc12 | x | 1% | -4% | x | 2% | x | -3% | x
CN(CCO)C(=O)C(c1ccccc1)c1ccccc1 | 7% | 0% | -13% | x | 0% | 8% | -2% | x
CC1(C)CC(=O)C2=C(C1)N1CCCCC1CC2=O (stereo not given) | -1% | 4% | 28% | -7% | 2% | 3% | -1% | 4.1%
CC(=O)c1ccc(NC(=O)COc2ccccc2-c2nc(C(C)C)no2)cc1 | 9%[46.1 µM] | x | -18% | 17% | x | -4%[46.1 µM] | x | -6.0%
Cc1cccn2c(=O)cc(CSc3nnc(NC(=O)c4ccc(F)cc4)s3)nc12 | x | x | 5% | 8% | x | u | x | 2.8%
C[C@@H](C(=O)Nc1nccs1)N1C(=O)C2CC=CCC2C1=O (stereo not given in full) | 6%[46.1 µM] | 0% | 1% | x | x | 8%[46.1 µM] | -3% | x
Cc1ccc(OCC(=O)NNC(=S)NCc2ccccc2)cc1 | -22%[46.1 µM] | 2% | -11% | x | 0% | -4% | -7% | x
Cc1ccc(C)c(N(CC(=O)Nc2ccccc2C(=O)NCc2ccco2)S(=O)(=O)c2ccccc2)c1 | u | 4% | -18% | -2% | u | -27% | -15% | -4.0%
O=C(O)C1CCCCN1S(=O)(=O)c1ccc(Cl)s1 (stereo not given) | x | 6% | -23% | 5% | 0% | x | 1% | 2.2%
COC(=O)c1nnn(CC(=O)Nc2ccc(C)c(F)c2)c1C(=O)OC | 3% | 5% | 6% | 1% | 3% | -3% | 11% | -2.3%
Clc1cccc(-c2ccc(CNCc3ccccn3)o2)c1 | x | -2% | 32%[activator] | x | 0% | x | -10% | x
CCN(CC(=O)NCc1ccc(Cl)cc1)C(=O)CCC(=O)c1ccc(F)cc1 | 7% | 10% | 5% | x | x | -13% | 9% | x
COc1ccc(NS(=O)(=O)c2ccc3c(c2)N(C(C)=O)CC(C)S3)c(OC)c1 (stereo not given) | x | 0% | 0% | x | -7% | x | 19% | x
CCOC(=O)C1(Cc2ccccc2)CCCN(CCCn2cccn2)C1 (stereo not given) | 6%[46.1 µM] | 0% | 5% | x | 3% | u | -15% | x
COc1ccc(CCN2C(=O)CC(N3CCC(C(N)=O)CC3)C2=O)cc1OC (stereo not given) | -11%[14.2 µM] | -5% | -20% | x | -64% | -27% | -27% | x
CS(=O)(=O)N(CC(=O)Nc1ccc2c(c1)OCO2)c1ccc(Cl)cc1 | 28% | 18% | 44%[activator] | 15% | 11% | -1% | -3% | -6.3%
Cc1cc(C)nc(CCNC(=O)CC2C(=O)NCCN2Cc2ccc(F)cc2Cl)n1 (stereo not given) | 4% | -6% | -17% | x | 21% | -1% | -10% | x
CC(C)C(NS(=O)(=O)c1ccc2c(c1)C(C)(C)C(=O)N2C)C(=O)NCc1ccccc1Cl (stereo not given) | x | 7% | -4% | x | 0% | x | -2% | x
Cc1sc2ncnc(N3CCN(c4ncccn4)CC3)c2c1C | u | -13% | u | -2% | -120% | u | -12% | -1.5%
CC1=NCCN1S(=O)(=O)c1cccc([N+](=O)[O-])c1 | u | 1% | -10% | x | 3% | -1% | -15% | x
O=C(Nc1ccc2c(c1)OCCO2)c1cnc2n(c1=O)CCS2 | u | -4% | 21% | 0% | -30% | 5% | 12% | -4.9%
Cc1c(CC(=O)NCC(=O)NCC(=O)O)c(=O)oc2cc3oc4c(c3cc12)CCCC4 | 9%[46.1 µM] | 1% | 4% | x | 6% | 16%[46.1 µM] | 9% | x
COc1ccc(-c2cnc(NCc3ccc(C)cc3)n2C)cc1 | -13%[46.1 µM] | x | -6% | -13% | x | -15%[46.1 µM] | x | 5.2%
CN(C)CCNS(=O)(=O)c1ccc(N2CCc3ccccc32)c([N+](=O)[O-])c1 | u | 8% | -12% | x | 2% | -4%[46.1 µM] | -18% | x
Cc1cc(S(=O)(=O)NCc2ccc(N3CCN(C)CC3)cc2)c(C)s1 | -12%[46.1 µM] | -3% | 7% | x | 0% | 15% | 34% | x
O=C(Nc1ccc(OCC(F)(F)C(F)F)c(C(F)(F)F)c1)c1ccc(Cl)cc1 | 16µM* | x | u | x | x | u | u | x
CSc1cccc(-c2nnc(NC(=O)c3ccc4c(c3)OCCO4)o2)c1 | x | x | 0% | -2% | x | 22%[46.1 µM] | x | 3.1%
O=C(NCCOCCOCCNC(=O)c1cccnc1)c1cccnc1 | 16%&16% | -6% | 9% | -5% | -9% | 21% | 26% | 4.5%
O=C1OCCN1C(=O)[C@H]1[C@H](c2ccccc2)C(c2ccccc2)=NN1c1ccccc1 | x | 5% | 0% | u | x | x | -18% | 0.6%
C=CCn1c(SCC(=O)c2c(N)n(C)c(=O)n(C)c2=O)nnc1-c1ccncc1 | 21%[46.1 µM] | 1% | -2% | x | -3% | -5% | 2% | x
COc1ccc2c(c1)C(=O)N(c1ccc(C)cc1)C(=O)C2 | -17% | 2% | 0% | -9% | 26% | 17% | 23% | -5.7%
CCn1cc(CCC(=O)NCc2ccc(F)cc2)c2ccccc21 | x | -4% | -6%&-14% | -14% | -7% | 12%[46.1 µM] | -20% | -2.8%
